# Compound activity as filed in PubChem BioAssay.
# MLL AF4-AF9 inh: inhibitors of AF4 peptide binding to AF9, primary screen, biochemical, AlphaScreen, biotin-AF4 peptide, FLAG-AF9, single point | Protein AF-9 (Homo sapiens), P42568 | inhibition, % at 10 µM | 350,000 compounds, 0.47% hits;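 active = every replicate reaching a set inhibition limit, whatever the replicate mean, cut at about 25% in these data; inconclusive = mean inhibition reaches that limit but some replicates miss it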;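 also: 0% = plate neutral control median and 100% = total signal loss; the record names both 10 and 1 µM as test concentration; the first replicate is given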
# Target sequence (P42568 whole entry, looked up): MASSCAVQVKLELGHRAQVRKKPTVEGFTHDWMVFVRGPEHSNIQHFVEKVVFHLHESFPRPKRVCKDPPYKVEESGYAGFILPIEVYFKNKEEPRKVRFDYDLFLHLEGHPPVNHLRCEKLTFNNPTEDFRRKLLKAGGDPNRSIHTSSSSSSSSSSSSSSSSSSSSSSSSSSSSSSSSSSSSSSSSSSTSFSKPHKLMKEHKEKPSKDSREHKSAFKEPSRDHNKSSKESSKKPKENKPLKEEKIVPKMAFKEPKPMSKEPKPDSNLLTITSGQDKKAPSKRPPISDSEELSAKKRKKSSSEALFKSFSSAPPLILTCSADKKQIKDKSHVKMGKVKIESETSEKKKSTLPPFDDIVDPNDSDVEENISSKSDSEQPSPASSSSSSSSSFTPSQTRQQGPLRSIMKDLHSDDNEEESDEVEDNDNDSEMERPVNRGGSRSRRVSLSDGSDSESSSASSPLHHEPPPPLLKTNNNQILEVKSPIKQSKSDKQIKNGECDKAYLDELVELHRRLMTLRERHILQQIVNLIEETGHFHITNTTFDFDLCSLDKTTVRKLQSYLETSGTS
# Active calls of the source: *; ? = inconclusive; & = joins results of further samples. Some of the compounds tested, so the mix of outcomes need not match the whole.
SMILES,MLL AF4-AF9 inh
C[C@@H]1CN([C@H](C)CO)C(=O)Cc2cc(NC(=O)C3CC3)ccc2O[C@H]1CN(C)CC1CCCCC1,-0.7
COc1ccc(S(=O)(=O)N(C)C[C@H]2Oc3ccc(NC(=O)CCN4CCOCC4)cc3C(=O)N([C@@H](C)CO)C[C@H]2C)cc1,-3.8
C[C@H]1CN([C@@H](C)CO)C(=O)Cc2cc(NC(=O)CCCCCC(=O)Nc3ccccc3N)ccc2O[C@H]1CN(C)Cc1ccc(-c2ccccc2)cc1,3.0
CCCNC(=O)[C@H]1N[C@H]2c3ccc(C4=CCCC4)c(=O)n3C[C@H]2[C@@H]1CO,1.5
COc1cccc(S(=O)(=O)N2C[C@@H](O)COC[C@H]3O[C@H](CC(=O)N4CCCCC4)CC[C@@H]32)c1,0.4
COCc1cn(CC[C@H]2CC[C@@H](NC(=O)Nc3ccc(OC)cc3)[C@H](CO)O2)nn1,-0.1
C[C@H]1CN([C@@H](C)CO)C(=O)c2cc(C#Cc3cccnc3)cnc2O[C@@H]1CN(C)S(=O)(=O)c1ccccc1F,1.1
CCOC(=O)C1=C(C(=O)OCC)C2N(Cc3ccc(C#N)cc3)c3ccccc3[C@@]23C[C@@H](C(=O)OC)N(S(=O)(=O)c2ccc(F)cc2)C3=N1 (some centres undefined),-0.8
Cc1ccccc1-c1ccc([C@H]2[C@H](CO)N3CCCCN(C(=O)c4cccnc4)C[C@@H]23)cc1,2.4
O=C(NCC1CC1)[C@@H]1[C@@H](CO)[C@@H]2Cn3c(ccc(-c4ccncc4)c3=O)[C@H]1N2Cc1nccs1,-1.6
O=C(NCC1CCCCC1)[C@H]1[C@H](CO)[C@H]2Cn3c(cccc3=O)[C@@H]1N2C(=O)c1ccncc1,-1.4
CCC(=O)Nc1ccc2c(c1)OC[C@@H](C)N(Cc1ccccn1)C[C@H](C)[C@@H](OC)CN(C)C2=O,?
C[C@H](CO)N1C[C@H](C)[C@@H](CN(C)Cc2ccc(C(F)(F)F)cc2)OCCCC[C@H](C)Oc2ccc(NS(=O)(=O)c3cccs3)cc2C1=O,0.1
O=C(NC1CCCCC1)N1CC2(C1)[C@@H](c1ccccc1)[C@@H](CO)N2CC1CC1,-0.6
CCCC#Cc1ccc([C@H]2[C@H](CO)N3C(=O)CN(C(=O)Nc4cc(F)ccc4F)C[C@@H]23)cc1,0.1
Cc1ccc(S(=O)(=O)N[C@H]2CC[C@@H](CC(=O)NCCN3CCCCC3)O[C@@H]2CO)cc1,-0.7
C[C@H]1CN([C@@H](C)CO)C(=O)CCCn2cc(nn2)CO[C@H]1CN(C)S(=O)(=O)c1ccc(-n2cccn2)cc1,-6.9
COc1ccc(NC(=O)N(C)C[C@@H]2OCCCC[C@H](C)Oc3ccc(NC(=O)Nc4ccc5c(c4)OCO5)cc3C(=O)N([C@@H](C)CO)C[C@H]2C)cc1,0.2
COc1ccccc1C(=O)Nc1ccc2c(c1)C(=O)N(C)C[C@H](OC)[C@H](C)CN(CC1CC1)[C@@H](C)CO2,-1.5
CO[C@H]1CN(C)C(=O)c2cc(NC(=O)c3cccc(F)c3)ccc2OC[C@@H](C)N(CC2CC2)C[C@H]1C,-12.2
COc1ccc(S(=O)(=O)Nc2ccc3c(c2)C(=O)N([C@H](C)CO)C[C@@H](C)[C@H](CN(C)C(=O)Nc2cccc4ccccc24)O3)cc1,-1.3
CC1(C(=O)NS(=O)(=O)c2ccc(C#N)cc2)CCN1C(=O)CC1CCCCC1 (centres undefined),-5.0
CC(C)NC(=O)N(C)C[C@@H]1OCc2cnnn2CCCC(=O)N([C@H](C)CO)C[C@H]1C,-2.2&-1.2&0.3
COc1ccc(-c2cn(CC[C@@H]3CC[C@@H](NC(=O)c4cnccn4)[C@H](CO)O3)nn2)cc1,-0.7
CCOc1ccc(NC(=O)c2ccc3c(c2)S(=O)(=O)N=C2CCCCCN23)cc1,-2.0

# A different layout for part of the listing above:
C[C@H]1CN([C@@H](C)CO)C(=O)c2cc(C#Cc3cccnc3)cnc2O[C@@H]1CN(C)S(=O)(=O)c1ccccc1F
  MLL AF4-AF9 inh = 1.1
COc1ccc(S(=O)(=O)N(C)C[C@H]2Oc3ccc(NC(=O)CCN4CCOCC4)cc3C(=O)N([C@@H](C)CO)C[C@H]2C)cc1
  MLL AF4-AF9 inh = -3.8
CO[C@H]1CN(C)C(=O)c2cc(NC(=O)c3cccc(F)c3)ccc2OC[C@@H](C)N(CC2CC2)C[C@H]1C
  MLL AF4-AF9 inh = -12.2
COCc1cn(CC[C@H]2CC[C@@H](NC(=O)Nc3ccc(OC)cc3)[C@H](CO)O2)nn1
  MLL AF4-AF9 inh = -0.1

# The list goes on.
SMILES,MLL AF4-AF9 inh
O=C(Nc1ccc(Cl)cc1)N[C@H]1CC[C@@H](CCn2cc(Cc3ccccc3)nn2)O[C@@H]1CO,1.9
C[C@H](CO)N1C[C@H](C)[C@@H](CN(C)CC2CCOCC2)Oc2ncc(-c3cccc(F)c3)cc2C1=O,-0.8
CCS(=O)(=O)N[C@H]1C=C[C@@H](CC(=O)NCc2ccc(Cl)cc2)O[C@H]1CO,-1.9
CO[C@@H]1CN(C)C(=O)c2cc(NC(=O)Nc3c(C)noc3C)ccc2OC[C@@H](C)N(C)C[C@@H]1C,?
C/C=C/c1ccc([C@@H]2[C@H](CO)N(C(=O)CC)[C@H]2CNC(=O)CC)cc1,0.4
Cn1cnc(S(=O)(=O)N[C@H]2C=C[C@H](CC(=O)NCC3CC3)O[C@@H]2CO)c1,-0.4
Cc1noc(C)c1NC(=O)Nc1ccc2c(c1)CC(=O)N([C@H](C)CO)C[C@H](C)[C@H](CN(C)CC1CC1)O2,-3.9
CC(=O)c1cccc(NC(=O)c2cccc3c(-c4cccnc4)coc23)c1,-1.2
O=C(c1ccccn1)N1C[C@H]2[C@@H](c3ccccc31)[C@H](CO)N2C(=O)Nc1ccccc1Cl,-0.9
N#C[C@H]1[C@@H](c2ccccc2/C=C/c2ccccc2)[C@@H](CO)N1S(=O)(=O)c1cccc(F)c1,4.4
CCC1NC(=O)c2cc3ccccc3cc2-n2c1nc1ccc(OC)cc1c2=O (centres undefined),-5.9
O=C(C[C@H]1C[C@@H]2c3cc(NC(=O)Nc4ccc(C(F)(F)F)cc4)ccc3O[C@@H]2[C@H](CO)O1)NCc1ccc(Cl)cc1,-0.8
O=C(c1ccccn1)N1CC2(C1)[C@@H](c1ccccc1)[C@@H](CO)N2C(=O)C1CC1,1.8
CCS(=O)(=O)N1CC2(CN(Cc3ccccc3F)[C@@H](CO)c3[nH]c4cc(OC)ccc4c32)C1,-8.8
CO[C@H]1CN(C)C(=O)c2ccc(NC(=O)Nc3cc(F)ccc3F)cc2OC[C@H](C)N(C(=O)c2ccccn2)C[C@@H]1C,0.2
O=C(N[C@H]1C=C[C@H](CC(=O)N2CCCCC2)O[C@H]1CO)c1cccc(F)c1,-16.3
O=C(Cc1ccccn1)NCC[C@@H]1CC[C@@H](NC(=O)Nc2ccc(Cl)cc2)[C@@H](CO)O1,-16.9
C[C@@H]1CN([C@@H](C)CO)C(=O)c2cc(/C=C/c3ccccc3)cnc2O[C@@H]1CN(C)S(=O)(=O)c1cccs1,3.8
COCC(=O)N1CCC2(CC1)CN(C(=O)COC)[C@@H](CO)c1c2c2ccc(OC)cc2n1C,-2.1
C[C@H](CO)N1C[C@H](C)[C@H](CN(C)C(=O)Nc2ccc(-c3ccccc3)cc2)OCc2ccccc2-c2c(n(C)c3ccccc23)C1=O,-11.3
COc1ccccc1S(=O)(=O)N(C)C[C@@H]1Oc2cc(C#CCC3CCCC3)ccc2S(=O)(=O)N([C@H](C)CO)C[C@H]1C,2.2
COc1ccc2c3c(n(C)c2c1)[C@H](CO)N(C(=O)Nc1ccc(F)cc1)CC31CN(C(=O)NC2CCCC2)C1,-4.2
CN(C)C(=O)C[C@@H]1C=C[C@H](NC(=O)Nc2cccc(F)c2)[C@@H](CO)O1,-11.1
C[C@H](CO)N1C[C@H](C)[C@@H](CN(C)Cc2ccc(C(=O)Nc3ccccc3N)cc2)Oc2c(NS(=O)(=O)c3cccs3)cccc2C1=O,2.3
CC1(C(=O)NS(=O)(=O)c2ccccc2C(F)(F)F)CCN1C(=O)c1cccc(F)c1 (centres undefined),-4.3

# 4 of the compounds above, as labelled records:
O=C(Nc1ccc(Cl)cc1)N[C@H]1CC[C@@H](CCn2cc(Cc3ccccc3)nn2)O[C@@H]1CO
  MLL AF4-AF9 inh: 1.9

C[C@H](CO)N1C[C@H](C)[C@@H](CN(C)CC2CCOCC2)Oc2ncc(-c3cccc(F)c3)cc2C1=O
  MLL AF4-AF9 inh: -0.8

CCS(=O)(=O)N[C@H]1C=C[C@@H](CC(=O)NCc2ccc(Cl)cc2)O[C@H]1CO
  MLL AF4-AF9 inh: -1.9

CO[C@@H]1CN(C)C(=O)c2cc(NC(=O)Nc3c(C)noc3C)ccc2OC[C@@H](C)N(C)C[C@@H]1C
  MLL AF4-AF9 inh: ?

# The results go on:
SMILES,MLL AF4-AF9 inh
O=C(N[C@H]1CC[C@@H](CCNC(=O)c2ccccc2F)O[C@H]1CO)c1ccc2c(c1)OCO2,-2.0
Cn1cc(-c2csc(C(O)(c3ccccc3)C(F)(F)F)n2)cn1 (centres undefined),-0.1
CC1(C(=O)NS(=O)(=O)c2ccccc2Cl)CCN1C(=O)COc1ccc(Cl)cc1 (centres undefined),-0.4
O=S(=O)(N[C@H]1CC[C@H](CCn2cc(-c3cccnc3)nn2)O[C@H]1CO)c1ccc(F)cc1,-0.5
C[C@@H]1CCCCO[C@H](CN(C)C(=O)C2CCCCC2)[C@H](C)CN([C@H](C)CO)C(=O)c2cc(NC(=O)NC3CCCCC3)ccc2O1,-4.4
CC(=O)N1CC[C@H]2[C@H](CO)Nc3ccc(-c4ccc(F)cc4)cc3[C@H]21,4.7
CCCN(C)C[C@H]1Oc2cc(Br)ccc2S(=O)(=O)N([C@H](C)CO)C[C@H]1C,0.0
COc1ccc(CN(C)C[C@H]2Oc3ccc(NC(=O)Nc4ccc(C(F)(F)F)cc4)cc3CC(=O)N([C@H](C)CO)C[C@H]2C)cc1,-0.1
CCC(=O)N(C)C[C@H]1Oc2ncc(-c3ccccc3F)cc2C(=O)N([C@H](C)CO)C[C@H]1C,-1.1
CN1C(=O)c2cc(NS(=O)(=O)c3cccc(F)c3)ccc2OC[C@H]2O[C@@H](CC(=O)NCCN3CCCCC3)CC[C@@H]21,-2.4
CCCC(O)C#Cc1cnc2c(c1)C(=O)N([C@H](C)CO)C[C@H](C)[C@H](CN(C)Cc1ccc3c(c1)OCO3)O2 (some centres undefined),-1.2
COCC(=O)N1[C@H](CO)[C@@H](c2ccccc2C2=CCCC2)[C@@H]1C#N,-7.3
C[C@H](CO)N1C[C@H](C)[C@H](CN(C)S(C)(=O)=O)Oc2ccc(NC(=O)Cc3ccccc3)cc2C1=O,-0.7
CCOc1ccc(-c2cc(C(=O)NCc3ccc(F)cc3)[nH]n2)c(C)c1,-3.4
Cc1noc(C)c1S(=O)(=O)Nc1ccc2c(c1)C(=O)N([C@H](C)CO)C[C@@H](C)[C@@H](CN(C)S(=O)(=O)c1cn(C)cn1)O2,-3.2
C[C@H]1CN([C@@H](C)CO)C(=O)c2cccc(NS(=O)(=O)c3ccc(F)cc3)c2O[C@@H]1CN(C)Cc1ccccc1,-2.0
COCC(=O)N(C)C[C@H]1[C@H](c2ccccc2)[C@H](CO)N1C(=O)NC(C)C,-0.2
C[C@@H](NC(=O)C[C@H]1C=C[C@@H](NC(=O)C2CC2)[C@@H](CO)O1)c1ccccc1,0.1
COc1cccc(NC(=O)N[C@H]2C=C[C@H](CC(=O)NCc3ccccn3)O[C@H]2CO)c1,-3.7
COc1cccc(-c2ccccc2[C@@H]2[C@H](C#N)N(C(=O)Cc3ccccc3)[C@H]2CO)c1,-2.3
C[C@H]1CN([C@@H](C)CO)S(=O)(=O)c2ccc(-c3cccnc3)cc2O[C@@H]1CN(C)CC1CC1,0.6
CNC[C@H]1Oc2c(NS(=O)(=O)c3cccs3)cccc2C(=O)N([C@H](C)CO)C[C@H]1C,-2.2
O=C(C[C@@H]1CC[C@@H]2[C@H](COC[C@@H](O)CN2C(=O)Nc2cccc(F)c2)O1)NCc1ccccc1F,-5.5
CCS(=O)(=O)N1[C@H](CO)[C@@H](c2ccc(C#Cc3ccccc3F)cc2)[C@@H]1C#N,-4.6
COc1cccc(-c2ccc([C@H]3[C@H](CO)N4C(=O)CN(C(=O)C5CCC5)C[C@@H]34)cc2)c1,-2.6

# (more compounds)
SMILES,MLL AF4-AF9 inh
C[C@H](CO)N1C[C@H](C)[C@H](CN(C)S(=O)(=O)c2ccccc2F)OCc2ccccc2-c2ccccc2C1=O,1.0
COc1ccc(C(O)c2nc(-c3ccc(OC)c(OC)c3)cs2)cc1 (centres undefined),-12.5
C[C@H]1CN([C@@H](C)CO)S(=O)(=O)c2ccc(C#CC3CC3)cc2O[C@@H]1CN(C)Cc1ccncc1,7.3
CO[C@H]1CN(C)C(=O)c2ccc(NS(=O)(=O)c3ccc(-c4ccccc4)cc3)cc2OC[C@@H](C)NC[C@@H]1C,0.0
COc1ccc(NC(=O)N(C)C[C@H]2Oc3c(NC(=O)C4CCCCC4)cccc3C(=O)N([C@H](C)CO)C[C@H]2C)cc1,0.4
CC=Cc1ccc2n(c1=O)C[C@H]1[C@H](CO)[C@@H](C(=O)N3CCC(Cc4ccccc4)CC3)N(C)[C@@H]21 (mixture of isomers),-0.5
C[C@H](CO)N1C[C@H](C)[C@H](CN(C)Cc2ccc(C(=O)O)cc2)OCCCC[C@H](C)Oc2ccc(NC(=O)Nc3ccc(F)cc3)cc2C1=O,-1.5
CC1C=NC(S(=O)(=O)N2CC[C@@H]3[C@H]2c2cc(-c4ccccc4F)ccc2N(C)[C@H]3CO)=N1 (some centres undefined),14.2
O=C(N[C@H]1CC[C@@H](CCNS(=O)(=O)c2cccc(Cl)c2)O[C@H]1CO)c1ccc(F)cc1,-2.1
COc1ccc(S(=O)(=O)N(C)C[C@H]2Oc3c(NC(=O)Nc4cccc5ccccc45)cccc3C(=O)N([C@@H](C)CO)C[C@H]2C)cc1,-1.5
CCS(=O)(=O)N1CC2(C1)[C@@H](c1ccccc1)[C@@H](CO)N2C(=O)c1ccccc1,-1.5
